GALR2 ag: GALR2 receptor agonists, primary screen, cell-based | activation, %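 (tested at 5 µM)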 | 140,000 tested, 0.48% active | GALR2-expressing cells, agonist activation read-out | Galanin receptor type 2 (Homo sapiens), O43603 | AID 803, 2007;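 active = above mean plus 3 SD of all compounds, about 5% in these data, not always enough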;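 also: 0% = vehicle buffer wells and 100% = reference agonist at full effect; tested in CHO reporter cells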
Target sequence (O43603 whole entry, looked up): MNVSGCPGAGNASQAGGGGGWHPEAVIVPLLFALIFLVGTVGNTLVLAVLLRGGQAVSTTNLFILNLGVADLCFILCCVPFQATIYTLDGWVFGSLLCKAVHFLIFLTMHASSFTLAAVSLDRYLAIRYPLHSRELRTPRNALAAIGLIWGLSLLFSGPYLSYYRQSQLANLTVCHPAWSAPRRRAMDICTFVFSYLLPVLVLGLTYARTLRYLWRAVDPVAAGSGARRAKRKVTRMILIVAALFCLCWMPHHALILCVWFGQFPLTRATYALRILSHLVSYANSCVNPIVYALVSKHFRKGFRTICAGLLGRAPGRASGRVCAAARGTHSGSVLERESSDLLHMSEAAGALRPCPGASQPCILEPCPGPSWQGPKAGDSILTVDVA
RGS16-Gao: modulators of RGS16 binding to Galphao, primary screen, biochemical, human proteins, multiplexed bead flow cytometry. AID 1441, 2008. 220,000 tested, 0.38% active. bead-based flow cytometry RGS16-Galphao binding, fluorescence; actives lie on both sides. Regulator of G-protein signaling 16 (Homo sapiens) + Guanine nucleotide-binding protein …. binding response (% of control), % at 10 µM;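 active = below 25% or above 175%, edge rows of some plates excepted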;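 also: Galphao activated by GDP with aluminum fluoride before binding; 100% = wells without compound and 0% = beads without RGS; some results beyond the cut were filed as inactive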
Target sequence (O15492 whole entry, looked up): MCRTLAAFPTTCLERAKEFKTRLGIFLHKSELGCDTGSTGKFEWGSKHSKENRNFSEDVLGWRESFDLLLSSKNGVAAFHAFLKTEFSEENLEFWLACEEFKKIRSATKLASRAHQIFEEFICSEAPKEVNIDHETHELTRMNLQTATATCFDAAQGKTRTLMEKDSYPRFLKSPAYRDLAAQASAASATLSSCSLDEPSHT
Target sequence (P09471 whole entry, looked up): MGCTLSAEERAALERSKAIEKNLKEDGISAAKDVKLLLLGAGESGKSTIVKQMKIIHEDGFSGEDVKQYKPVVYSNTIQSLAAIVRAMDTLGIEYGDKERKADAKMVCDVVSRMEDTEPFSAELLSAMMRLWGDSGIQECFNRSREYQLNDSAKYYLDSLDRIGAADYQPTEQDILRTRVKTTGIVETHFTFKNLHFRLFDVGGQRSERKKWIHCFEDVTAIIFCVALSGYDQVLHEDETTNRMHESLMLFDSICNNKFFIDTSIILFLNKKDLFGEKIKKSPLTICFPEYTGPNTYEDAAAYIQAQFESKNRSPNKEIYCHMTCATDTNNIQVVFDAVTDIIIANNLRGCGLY
INS promoter inh: inhibitors of insulin promoter-driven GFP, primary screen, imaging, TRM-6 cells (human fetal islet line), eGFP reporter, cell count; reporter expression induced with tamoxifen; inhibition, % at 2 µM; 130,000 tested, 0.9% active;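 active = inhibition above the mean plus 3 SD, with well images judged a real hit on visual review, cut at about 60% in these data, passing the limit was not always enough; inconclusive = inhibition over the cutoff but images rejected on review; inactive = inhibition not above the cutoff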
HSV replic up: enhancers of HSV replication in host cells, fold increase, host cell viability; HSV replication augmentation in cells; maximum fold increase; 220,000 tested, 0.005% active; AID 1956, 2009;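 active = peak rise of 1.5-fold or more in the series; inconclusive = self-fluorescent or not available for retest; tested in PC3 cells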;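 also: first round at 10 µM; read as green reporter fluorescence; hits show the peak of a series up to 25 µM; 1 = signal of infected wells without compound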
PKD1 kinase inh: inhibitors of human PKD1 kinase, biochemical, fluorescence polarization | Serine/threonine-protein kinase D1 (Homo sapiens), Q15139 | PKD1 kinase fluorescence polarization assay | inhibition, %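 (about 10 µM by stock and volumes)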 | 200,000 tested, 0.056% active | AID 797, 2007;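 active = inhibition of 50% or more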;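 also: controls were vehicle for no effect and a reference inhibitor for full effect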
INS promoter inh cell count: also measured in INS promoter inh; calls as there; normalized cell count, %; measured here: cell count, toxicity; reference of the scale not given here;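 cells exposed to compound for 48 h; stained nuclei by imaging scaled within each plate; lower means fewer cells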
HSV replic up primary fold: further read-out of HSV replic up, marked with its call; fold increase; compound at 10 µM; measured here: primary screen fold increase 10 uM; tested in PC3 cells;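 GFP signal in the first replicate; 1 = infected wells without compound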
An asterisk follows results filed as active; i = inactive; ? = inconclusive; / = not tested or not shown; [ ] = another dose, or the depositor's remark.

SMILES	GALR2 ag	RGS16-Gao	INS promoter inh	INS promoter inh cell count	HSV replic up	HSV replic up primary fold	PKD1 kinase inh
Cc1sc2ncnc(OCC(=O)NCC3CCCO3)c2c1C (configuration not stated)	-1.5	118	15	75	i	1.1	-12
CCOC(=O)N1CCN(c2c(NC3CCN(Cc4ccccc4)CC3)c(=O)c2=O)CC1	-1.7	100	/	/	i	0.75	12
COC(=O)c1c(O)ccc(Oc2ccccc2)c1C(=O)OC	/	87	/	/	i	0.91	/
COCCNC(=O)Cn1cc(S(=O)(=O)N2CCN(c3ccccc3F)CC2)c2ccccc2c1=O	/	101	/	/	i	0.94	10
NS(=O)(=O)c1ccc(NC(=S)NNC(=O)c2cccs2)cc1	/	101	/	/	i	0.94	4
Cc1noc(/C=C/N(C)C)c1S(=O)(=O)N1CCCC(C(=O)NC2CCCCC2C)C1 (configuration not stated)	-4.0	99	/	/	/	/	13
Cc1nc2ccccc2c(=O)n1/N=C1\C(=O)N(C)c2ccccc21	/	105	10	111	i	0.88	5
COc1cc(/C=C/c2ccc3cccc(OC)c3n2)c(O)c([N+](=O)[O-])c1	/	98	/	/	i	0.73	-6
O=C1N(c2ccc(Cl)c(Cl)c2)CN(Cc2ccccc2)CN1n1cnnc1	-1.8	102	-21	78	i	0.77	-1
Cc1ccc(C2CC(=O)Nc3sc(C(N)=O)c(N)c32)cc1 (configuration not stated)	-2.9	104	25	142	i	1.1	0
COc1cccc(N2CCN(C3CC(=O)N(c4ccc(C)c(Cl)c4)C3=O)CC2)c1 (configuration not stated)	-1.0	98	-7	111	i	1.1	-11
Cc1ccc(N(C(=O)Cn2nnc3ccccc32)C(C(=O)NCc2ccccc2)c2ccccn2)cc1 (configuration not stated)	-1.2	104	-46	79	i	1.1	5
CC(NC(=O)CC(c1ccccc1)c1cc(Cl)ccc1O)c1ccccc1 (configuration not stated)	-1.8	158	-11	101	i	1.1	-2
CN1c2ccccc2C(=O)/C(=C\Nc2ccc(F)cc2F)S1(=O)=O	/	91	/	/	i	0.97	/
CN(C(=O)CCn1c(=S)oc2ccccc21)c1ccc(F)cc1	/	101	-14	52	/	/	-12
O=C(Cc1cccs1)N/N=C/C=C/c1ccccc1	-1.3	100	8	98	i	0.89	-1
CCc1ccc(NC(=O)Cn2nc(C(F)(F)F)c3c2CCC3)cc1	-1.2	101	14	143	i	0.94	-6
CCn1c(C)nc2cc(C(=O)N=Nc3c(O)[nH]c4c(C)cc(C)cc34)ccc21	0.6	102	-3	114	i	0.85	-2
CCOC(=O)c1c(C)c(C(=O)NCc2ccco2)c(C)n1C	/	65	/	/	i	1.1	-6
Cc1ccc(NC(=O)/C=C/C(=O)O)c([N+](=O)[O-])c1	-0.2	99	24	135	i	0.99	8
Brc1cnc(N2CCCC2)nc1N1CCOCC1	-0.5	106	12	98	i	0.81	-16
CC1(C)OC(=O)C(=CNCCc2ccc(O)cc2)C(=O)O1	/	102	/	/	i	1	7
CCCCN(CC)S(=O)(=O)c1ccc(C(=O)N=c2sc3cc(NC(C)=O)ccc3n2C)cc1	0.8	119	/	/	i	0.89	8
CCc1ccc(C2c3[nH]c4ccccc4c3CCN2C(=O)c2cc[n+]([O-])cc2)cc1 (configuration not stated)	/	96	/	/	i	0.84	/
O=C(NCCc1c[nH]c2ccccc12)C1CCN(S(=O)(=O)c2ccccc2F)CC1	/	105	/	/	i	0.89	-4
O=C(Nc1ccc(N2CCOCC2)cc1Cl)C1CCN(C(=O)OCc2ccccc2)CC1	/	99	/	/	i	0.97	/
COc1ccc(NS(=O)(=O)c2ccc(NC(=S)NC(=O)CC(C)C)cc2)cc1	-1.1	98	3	96	i	0.92	-5
O=C(O)CCC(NC(=O)C1CCCN1C(=O)OCc1ccccc1)C(=O)O (configuration not stated)	/	47	/	/	i	1.1	1
Cc1sc(NC(=O)c2ccc(OCC(C)C)cc2)c(C(N)=O)c1-c1ccc(Cl)cc1Cl	-0.3	98	/	/	i	1.1	0
CCOc1ccc(C(=O)NCC(=O)OCc2c(C)noc2C)cc1	-2.3	98	3	70	i	1	-4
COC(=O)c1cc(-c2ccccc2)on1	-1.5	106	0	160	i	1	7
CCCCOC(=O)CN1C(=O)c2ccc(C(=O)OCCCC)cc2C1=O	-0.1	91	-71	75	i	0.99	-13
Cc1ccc(-c2nc(-c3nccc4ccccc34)oc2-c2ccccc2)cc1	/	103	/	/	i	0.84	/
O=C(OC(C(=O)NCc1cccs1)c1ccccc1Cl)c1ccco1 (configuration not stated)	-0.3	99	-64	121	i	1.1	19
Cc1cc(NC(=O)CCN2CCC(C(N)=O)CC2)ccc1Br	-0.6	101	-18	112	i	0.9	-3
COc1ccc(N2CCN(S(=O)(=O)c3cccc4nsnc34)CC2)cc1	-1.1	107	-23	104	/	/	-7
CCCn1c(C(=O)OC)cc2c1ccn2-c1ccc(F)cc1	5.6*	97	40	170	i	0.92	-1
O=c1cc(-c2ccc(F)cc2)oc2ccccc12	-1.0	/	-81	73	i	0.91	-3
COC(=O)[C@@H](NC(=O)NCCC1=CCCCC1)C(C)C	/	96	/	/	i	1.1	/
CCOC(=O)C(=O)Nc1nnc(C2CCCCC2)s1	0.5	98	41	21	i	0.87	9

Random excerpt: three entries already listed
SMILES	GALR2 ag	RGS16-Gao	INS promoter inh	INS promoter inh cell count	HSV replic up	HSV replic up primary fold	PKD1 kinase inh
COCCNC(=O)Cn1cc(S(=O)(=O)N2CCN(c3ccccc3F)CC2)c2ccccc2c1=O	/	101	/	/	i	0.94	10
O=c1cc(-c2ccc(F)cc2)oc2ccccc12	-1.0	/	-81	73	i	0.91	-3
COc1cc(/C=C/c2ccc3cccc(OC)c3n2)c(O)c([N+](=O)[O-])c1	/	98	/	/	i	0.73	-6

The results go on:
SMILES	GALR2 ag	RGS16-Gao	INS promoter inh	INS promoter inh cell count	HSV replic up	HSV replic up primary fold	PKD1 kinase inh
COc1ccc(C(=O)CSc2nnc(-c3cnccn3)n2Cc2ccco2)cc1	1.2	70	/	/	i	0.98	0
O=C(/C=C/c1ccc(Br)o1)NCc1ccccc1	/	91	18	153	i	0.95	-3
N#CC1=C(N)SC(N)=C(C#N)C1C1C=CCCC1 (configuration not stated)	-2.7	112	20	155	i	1	2
CCCc1cc(-n2ccnc2)n2c(nc3ccccc32)c1C#N	-1.3	192*[activator]	-7	169	/	/	-2
Cc1cc2nc(-c3ccc(SCc4ccc(C#N)cc4)nc3)[nH]c2cc1C	-3.4	128	/	/	i	0.81	4
Cc1[nH]c2ccccc2c1C(=O)CN1C(=O)C(=O)N(C2CCCC2)C1=O	/	91	/	/	i	1.1	-5
Cc1ccc2cc(CN(CC3CCCO3)C(=S)NCc3ccco3)c(=O)[nH]c2c1C (configuration not stated)	-1.4	96	-6	141	i	0.77	2
CC(C)CN1C(=O)C(=O)N(CC(=O)N2CCC(Cc3ccccc3)CC2)C1=O	/	109	18	31	i	0.85	-3
O=c1cnnc(Nc2cccc(F)c2)[nH]1	/	100	9	81	i	0.94	4
Cc1cc(N)ccc1-n1c(C)ccc1C	-1.8	98	/	/	i	0.72	-12
CCc1cc2c(CN3CCN(CCO)CC3)cc(=O)oc2cc1O	11	101	-300	79	i	0.81	-4
Cc1ccc(SC/C(O)=C(\C#N)c2nc3ccccc3n2C)cc1	-1.1	99	/	/	i	1	-14
CC(=O)N=c1n(C)c2ccccc2n1CCOc1ccccc1	-1.2	100	-83	138	i	1	0
COc1ccccc1N1CCN(C2CCCC(C)C2)CC1 (configuration not stated)	-2.1	91	-39	100	i	1.1	-3
CC(C)N1C(=S)SC(C)(C)C1NO (configuration not stated)	-1.5	83	/	/	i	0.93	7
O=C1c2ccccc2CCC12N=NCC2c1ccccc1 (configuration not stated)	-4.0	93	-36	194	i	0.7	0
CCOC(=O)Cn1nc(C)n(-c2ccc(C(C)C)cc2)c1=O	-1.2	78	-57	94	i	0.85	-3
O=c1cc(CN2CCC(Cc3ccccc3)CC2)nc2sccn12	/	98	-60	101	i	0.99	-4
COc1ccc2[nH]cc(CC(=O)O)c2c1	-0.4	115	18	98	i	0.96	-6
COc1ccc2[nH]c(=O)c(CN(CC3CCCO3)C(=O)Nc3ccccc3OC)cc2c1 (configuration not stated)	0.7	99	/	/	i	0.92	-6
CCN1c2ccccc2NC2C1C(C(C)=O)C(=O)N2c1ccc(Cl)cc1 (configuration not stated)	-0.7	113	-133	132	?	/	-44
Cc1cc(C)c2cc(C#N)c(NCCCNC(=O)CCC(=O)O)nc2c1	-0.4	99	-29	128	i	0.7	-2
COc1ccccc1CNC(=O)COC(=O)c1ccc(Cl)c(N)c1	/	103	-50	97	i	1	2
CCCCCCN(C(=O)CCCCCN1C(=O)NC(c2ccc(-c3ccccc3)cc2)C(C(=O)OCc2ccccc2)=C1C)C(C(=O)NCCCC)c1ccc(-c2ccccc2)cc1 (configuration not stated)	/	104	/	/	i	0.99	/
O=C(COc1ccccc1)Nc1ccc2c(c1)C(=O)N(CC1CCCO1)C2=O (configuration not stated)	/	98	/	/	i	0.99	2
O=C(C1Cc2ccccc2CN1S(=O)(=O)c1ccc(F)cc1)N1CCOCC1 (configuration not stated)	0.0	102	0	102	i	0.97	-2
Cc1ccc(C(=O)NC(=S)Nc2ccc3[nH]c(=O)[nH]c3c2)cc1	-0.6	103	-90	102	i	1.1	0
COC(=O)CC(CP(=O)(O)CN(C)C=O)C(=O)OC (configuration not stated)	/	102	/	/	i	1.2	/
O=[N+]([O-])c1ccc(NCc2ccccc2)nc1	-2.8	101	38	77	/	/	3
Nn1cnc2sc3c(c2c1=O)CCC3	-1.3	101	13	84	i	1.1	0
CC(=O)C(Sc1nnnn1-c1ccccc1)C(C)=O	/	103	/	/	i	1	/
Cn1c(=O)c2c(ncn2CC(=O)N2CCN(c3ccc([N+](=O)[O-])cc3)CC2)n(C)c1=O	/	103	/	/	i	1.1	/
COc1ccc(/C=N/NC(=O)CN2CCS(=O)(=O)CC2)cc1	-0.6	101	35	137	i	0.94	-10
Cc1ccsc1/C=N/NC(=O)c1ccc2nc[nH]c2c1	-1.2	106	24	92	i	0.91	3
O=C(O)CCCCCN1C(=O)/C(=C\c2cn(-c3ccccc3)nc2-c2cccs2)SC1=S	/	105	/	/	i	1	/
N/C(=N\OC(=O)C1CCCCC1)c1ccccn1	-3.2	100	0	108	i	0.95	-8
CCn1c(C(=O)N2CCC(C(=O)NCc3ccc4c(c3)OCO4)CC2)cc2sccc21	-1.8	107	/	/	i	0.94	2
CC(C)CN(CCNC(=O)CN1C(=O)CSc2ccc(S(=O)(=O)N3CCOCC3)cc21)CC(C)C	/	89	36	110	i	0.8	-6
COc1cc(/C=N/n2cnnc2)ccc1OS(=O)(=O)c1ccccc1[N+](=O)[O-]	-0.8	44	-34	77	i	0.8	-4

Of the compounds above, these have fluorine.
SMILES	GALR2 ag	RGS16-Gao	INS promoter inh	INS promoter inh cell count	HSV replic up	HSV replic up primary fold	PKD1 kinase inh
COCCNC(=O)Cn1cc(S(=O)(=O)N2CCN(c3ccccc3F)CC2)c2ccccc2c1=O	/	101	/	/	i	0.94	10
CN1c2ccccc2C(=O)/C(=C\Nc2ccc(F)cc2F)S1(=O)=O	/	91	/	/	i	0.97	/
CN(C(=O)CCn1c(=S)oc2ccccc21)c1ccc(F)cc1	/	101	-14	52	/	/	-12
CCc1ccc(NC(=O)Cn2nc(C(F)(F)F)c3c2CCC3)cc1	-1.2	101	14	143	i	0.94	-6
O=C(NCCc1c[nH]c2ccccc12)C1CCN(S(=O)(=O)c2ccccc2F)CC1	/	105	/	/	i	0.89	-4
CCCn1c(C(=O)OC)cc2c1ccn2-c1ccc(F)cc1	5.6*	97	40	170	i	0.92	-1
O=c1cc(-c2ccc(F)cc2)oc2ccccc12	-1.0	/	-81	73	i	0.91	-3
O=c1cnnc(Nc2cccc(F)c2)[nH]1	/	100	9	81	i	0.94	4
O=C(C1Cc2ccccc2CN1S(=O)(=O)c1ccc(F)cc1)N1CCOCC1 (configuration not stated)	0.0	102	0	102	i	0.97	-2

Compounds as they come. Share with any hit: about 1.3%.
